Screens from PubChem.
Menin-MLL FL inh = displaces fluorescein MLL peptide from human menin | Fluorescence polarization, fluorescein-MLL peptide displacement from menin | FP activity change, % at 61.4 µM | 290,000 tested, under 10 active | AID 1766; inconclusive = falling polarisation curve, or a change in total fluorescence; inactive = total fluorescence flat and polarisation flat or rising; no compound was filed as active; the % refers to the polarisation; negative = inhibition;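 further: % of control where 0% means no effect; inhibitors lower the polarisation; unlabelled MLL peptide was the positive control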
Sfp PPTase inh = inhibitors of Bacillus subtilis Sfp phosphopantetheinyl transferase; Q9F4F7; Biochemical Sfp PPTase activity, qHTS; Potency, µM, without a hit: max response, negative = inhibition, most hits filed as inhibitors; 310,000 compounds, 3.5% hits; active means well fitted inhibition curve with a large enough effect; inconclusive means small, poorly fitted or top-dose-only effect, or another doubt; inactive means no such curve, though single readings can be large or run the other way;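 further: the enzyme is Sfp with the accession as filed and its product quenches rhodamine fluorescence; potency means the concentration at half of the fitted maximal effect; 0% = enzyme reaction without inhibitor and -100% = no enzyme wells; top concentration of the series not given in the record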
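Fluorescence-quenching assay with 15 nM Sfp, 5 uM rhodamine-CoA and 12.5 uM BHQ-2-labelled ybbR peptide in pH 7.6 Hepes/MgCl2 buffer. Enzyme was pre-incubated with compound for 15 min at room temperature. Rate was taken from the 30-min fluorescence change (525/598 nm).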
gsp ag = activates gsp, the McCune-Albright syndrome mutation. gsp mutant cells, cAMP HTRF, 30 min; control for the full effect not named in the record. Potency, µM (titrated, usually from 76.9 µM), for the others: at the top dose activation (cAMP increase), most hits filed as activators. 340,000 compounds, 0.13% hits; active = well fitted activation curve with a large enough effect; inconclusive = small, poorly fitted or top-dose-only effect, or another doubt; inactive = no such curve, though single readings can be large or run the other way; cell line not stated here;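 further: phosphodiesterase inhibitor Ro 20-1724 added with compounds to block cAMP breakdown; potency means the concentration at half of the fitted maximal effect; nearly all actives have a fitted effect of over 60% in size; about a fifth of the inactives were tested at one dose only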
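Cells stably selected in G418 were plated at 2000/well, grown 16-24 hr, then given compounds in DMSO with the PDE inhibitor […] (300 uM solution added) for 30 min at 37C; cAMP was read by HTRF.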
ClpP mod = qHTS Assay for Activators of ClpP. AID 651965, 2013. Potency, µM (doses to about 57.5 µM), for inactives: at the highest dose activity change, negative = active. ATP-dependent Clp protease proteolytic subunit (Bacillus subtilis (strain 168)), P80244. 340,000 compounds, 1.9% hits. purified B. subtilis ClpP, FRET peptide cleavage, 20 min; active = well fitted falling curve with a large enough effect; inconclusive = small, poorly fitted or top-dose-only effect; inactive = no such curve, though single readings can be large or run the other way; further: potency means the concentration at half of the fitted maximal effect; the source files actives as falling curves though it sought activators and does not explain the sign; nearly all actives have a fitted effect of over 65% in size; many hits overshoot -100%
Target sequence (P80244 whole entry, looked up): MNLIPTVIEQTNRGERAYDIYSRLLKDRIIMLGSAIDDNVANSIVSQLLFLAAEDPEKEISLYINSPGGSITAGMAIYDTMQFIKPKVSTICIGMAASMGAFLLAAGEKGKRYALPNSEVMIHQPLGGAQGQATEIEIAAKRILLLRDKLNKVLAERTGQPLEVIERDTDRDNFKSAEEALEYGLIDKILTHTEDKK
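Buffer: 100 mM Tris/HCl pH8, 100 mM KCl, 0.05% low protease BSA, 2.5% glycerol, 0.01% Tween-20. ClpP 10 microg/mL final; 20 min RT; delta FRET normalized to ADEP and DMSO controls.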
CtBP-E1A blk = inhibitors of CtBP/E1A interaction; AlphaScreen GST-E1A/His-CtBP binding, 1536-well; hits give low values; control for the full effect not named in the record; activity change, % (test concentration not listed); 340,000 compounds, 0.49% hits; in the data active means activity change below about -65%; inconclusive means about -30% to -65%; inactive means above about -30%; further: on the % scale 0 is the no-effect control and ±100 the full control effect
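GST-E1A and His-tagged CtBP (125 nM each as 5X stock) were preincubated with pin-transferred compound for 2 h at 37 °C in the dark, then glutathione donor and nickel acceptor beads were added for 1 h before AlphaScreen reading.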
TRPV1 potentiator = human TRPV1 potentiation; Q8NER1; TRPV1-expressing cells, Fluo-8 calcium influx, capsaicin EC20 potentiation; host cell line not named in the record; control for the full effect not named in the record; potentiation, % at 8.33 µM; 320,000 compounds, 0.02% hits; AID 540277; active means potentiation above 80%; inconclusive means 30% to 80%; inactive means below 30%; further: 0% is about no effect
Target sequence (Q8NER1 whole entry, looked up): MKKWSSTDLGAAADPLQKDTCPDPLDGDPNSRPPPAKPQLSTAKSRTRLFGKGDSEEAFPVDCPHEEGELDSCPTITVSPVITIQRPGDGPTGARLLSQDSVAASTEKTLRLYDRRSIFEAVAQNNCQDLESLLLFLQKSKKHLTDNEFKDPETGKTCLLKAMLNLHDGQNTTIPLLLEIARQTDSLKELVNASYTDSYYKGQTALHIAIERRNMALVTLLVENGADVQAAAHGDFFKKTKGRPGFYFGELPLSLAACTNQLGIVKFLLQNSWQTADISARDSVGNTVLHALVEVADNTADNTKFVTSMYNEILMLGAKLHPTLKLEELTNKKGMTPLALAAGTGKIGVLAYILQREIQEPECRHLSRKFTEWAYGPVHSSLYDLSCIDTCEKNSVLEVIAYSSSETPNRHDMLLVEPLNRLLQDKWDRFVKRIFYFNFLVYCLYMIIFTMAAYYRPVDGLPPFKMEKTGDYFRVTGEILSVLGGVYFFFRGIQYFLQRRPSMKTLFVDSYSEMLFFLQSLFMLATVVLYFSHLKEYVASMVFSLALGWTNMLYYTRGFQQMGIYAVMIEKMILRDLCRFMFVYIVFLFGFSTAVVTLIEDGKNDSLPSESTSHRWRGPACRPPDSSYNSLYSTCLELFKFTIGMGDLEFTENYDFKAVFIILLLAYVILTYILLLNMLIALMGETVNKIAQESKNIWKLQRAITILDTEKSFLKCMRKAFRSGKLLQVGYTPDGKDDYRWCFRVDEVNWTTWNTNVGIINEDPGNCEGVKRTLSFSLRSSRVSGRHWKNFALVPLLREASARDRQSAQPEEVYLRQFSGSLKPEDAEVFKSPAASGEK
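Fluo-8 calcium influx in TRPV1-expressing cells, kinetic read (ex 480/em 520 nm). Compound added and read 3 min for agonist activity, followed by capsaicin at EC20 final and 2 min further read for enhancement.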
gsp antagonist = antagonizes gsp, the McCune-Albright syndrome mutation | AID 624288 | Potency, µM (series often up to 76.9 µM), without a hit: at the highest dose activity change, negative = inhibition, most hits filed as inhibitors | 340,000 compounds, 0.4% hits | gsp-mutant cells, cAMP HTRF, 30 min; control for the full effect not named in the record; active = falling curve of any shape with a large fitted effect; inconclusive = falling curve, mostly with a smaller effect; inactive = flat or rising curve; cell line not stated here;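 further: intracellular cAMP measured with PDE inhibitor Ro 20-1724 present during compound exposure; potency means the concentration at half of the fitted maximal effect; on the % scale 0 is the no-effect control and ±100 the full control effect; nearly all actives have a fitted effect of over 65% in size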
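Measurement of cellular cAMP by homogeneous time-resolved fluorescence following a 30 min compound exposure at 37C. The PDE inhibitor […] was present throughout; the assay buffer was DPBS with 0.05% BSA and 0.005% Tween 20.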
* = called active by the depositor; ? = inconclusive; . = not tested or not shown; & = joins results of further samples; [ ] = dose if it differs, or a comment. Random draw from the library, and some 5.3% of all compounds hit somewhere here.

1) COC(=O)c1c(NC(=O)C(C)(C)C)sc2c1C(C(=O)OC)CC2 (stereo not given)
2) O=C1[C@H](Cc2ccccc2)NCCCC[C@@H](c2ccc(Cl)cc2)N1Cc1ccccc1
3) O=C(CSc1nnc(-c2cccs2)o1)NCC1CN(Cc2ccccc2)CCO1 (stereo not given)
4) CCOc1ccc(NC(=O)CN(C)C(=O)c2cc([N+](=O)[O-])ccc2N2CCCCC2)cc1OCC
5) Cc1ccccc1Cn1cc(NC(=O)c2cc3nc(-c4ccco4)cc(C(F)(F)F)n3n2)cn1
6) Clc1cccc(CSc2ccc(-c3ccco3)nn2)c1

compound no.,1,2,3,4,5,6
Menin-MLL FL inh,-1.7,.,0.6,.,4.4,-6.2
Sfp PPTase inh,-12%,.,14%,.,9%,35µM*
gsp ag,17%,.,9%,?,0%,2%[15.4 µM]
ClpP mod,?,-1.7%&0.5%,-17%,-3.1%,69%,-0.1%
CtBP-E1A blk,3,-3,1,-14,-12,11
TRPV1 potentiator,10,.,19,0,8,-7
gsp antagonist,3%,2%,-3%,-12%,-9%,12%

7) N#Cc1ccc(C(=O)Nc2nnc(-c3ccccn3)o2)cc1
8) Cc1ccccc1C(=O)Nc1nnc(-c2ccco2)o1
9) CCOc1cc(C(=O)OCC(=O)Nc2c(C)cccc2C)ccc1OCC(=O)N1CCOCC1
10) COC(=O)[C@]1(C)N[C@H](CN(C)C(=O)Nc2ccc(OC)cc2)[C@@H]2C(=O)N(C)C(=O)[C@@H]21
11) Cc1c(C(=O)OC(C)C(C)C[N+](C)(C)C)oc2ccccc12 (stereo not given)
12) O=C(O)CSc1nc2ccccc2c(=O)[nH]1

compound no.,7,8,9,10,11,12
Menin-MLL FL inh,3.8,4.2,1.7,.,3.7,2.6
Sfp PPTase inh,20%,-12%,6%,.,5%,-5%
gsp ag,9%,-36%[15.4 µM],-19%,.,-31%[inhibitor],6%
ClpP mod,-1.7%,.,-3.4%,1.8%,28µM*,-13%
CtBP-E1A blk,?,17,.,0,1,12
TRPV1 potentiator,-12,-8,-24,.,5,-6
gsp antagonist,-11%,13%,-7%,11%,17%,-1%

13) Cc1cccc(C)c1Nc1c(-c2ccc(N3CCOCC3)cc2)nc2cnccn12
14) O=C(CC1SC(=O)N(c2ccccc2)C1=O)Nc1ccc(Cl)cc1 (stereo not given)
15) Cc1nc(NC(=O)c2ccc(Br)o2)sc1C
16) COc1ccc(NC(=O)COC(=O)CN2C(=O)NC(C)(C)C2=O)cc1
17) Cc1c(C(c2ccccc2)c2c(C)n(C)n(-c3ccccc3)c2=O)c(=O)n(-c2ccccc2)n1C
18) O=C(/C=C/c1ccc(OC(F)F)cc1)OCC(=O)N1CCC(c2ccccc2)=N1

compound no.,13,14,15,16,17,18
Menin-MLL FL inh,4.8,0.4,-0.4,.,-3.6,.
Sfp PPTase inh,-6%,-19%,11%,.,15%,.
gsp ag,?,-19%[15.4 µM],-18%,-4%,-7%,-2%
ClpP mod,-12%,-2.6%,0.3%,0.3%,0.3%,-15%
CtBP-E1A blk,18,-18,-1,12,6,.
TRPV1 potentiator,-26,0,0,0,-2,-1
gsp antagonist,8%,-1%,10%,11%,5%,-6%

19) CCCS(=O)(=O)N1CCC(C(=O)N2CCOCC2)CC1
20) O=c1cc(NCC2CCCO2)[nH]c(=O)n1-c1ccc(Cl)cc1 (stereo not given)
21) NS(=O)(=O)c1ccc(CCNCC(=O)NCc2ccccc2Cl)cc1
22) CC(C)NC(=O)c1noc2cc([N+](=O)[O-])ccc12
23) CN1C[C@@H]2[C@@H]3C(=O)N(Cc4ccccc4)C(=O)[C@@H]3[C@](Cc3ccccc3)(C1=O)N2C(=O)c1ccc(Cl)c(Cl)c1
24) CC(C)CCc1noc(CN2CCC(CCN3CCCC3=O)CC2)n1

compound no.,19,20,21,22,23,24
Menin-MLL FL inh,6.0,0.7,-11,3.4,.,-2.1
Sfp PPTase inh,3%,10%,-20%,9%,.,10%
gsp ag,-2%,-47%[inhibitor],2%,-2%,-10%,-8%[15.4 µM]
ClpP mod,-22%,-2.6%,1.6%,-1.5%,0.5%,-0.5%
CtBP-E1A blk,-3,-16,5,0,4,7
TRPV1 potentiator,2,-6,13,.,.,-4
gsp antagonist,-4%,4%,-5%,11%,-9%,15%

25) NNC(=O)c1cn2ccccc2n1
26) O=C(NN=C1CCCC1)c1ccc(Br)cc1
27) Cc1oc2ccc(O)c(CN3CCOCC3)c2c1C(=O)c1ccc(Cl)cc1
28) O=C(NCc1cnc2ccccn12)C1CCC(=O)N(Cc2ccccc2F)C1 (stereo not given)
29) COc1ccc(N(CC(=O)N2CCOCC2)S(C)(=O)=O)cc1OC
30) COc1ccc(OCCn2cncn2)cc1

compound no.,25,26,27,28,29,30
Menin-MLL FL inh,2.3,2.1,-1.6,.,2.3,-0.9
Sfp PPTase inh,79µM*,8%,17%,16%,2%,-3%
gsp ag,-12%,0%[15.4 µM],7%,36%,?,-45%[inhibitor]
ClpP mod,-15%,4.1%,-0.9%,32µM*,.,-1.2%
CtBP-E1A blk,-2,4,-8,12,4,0
TRPV1 potentiator,9,6,6,2,9,13
gsp antagonist,-7%,7%,-15%,8%,11%,12%

31) N#Cc1ccc(NC(=O)COC(=O)c2ccc(F)c(S(=O)(=O)N3CCOCC3)c2)cc1
32) Cc1ccc2nc(-c3ccc(NC(=O)CN(c4ccccc4C)S(C)(=O)=O)cc3)sc2c1
33) Nc1nnnn1/N=C\c1ccc(Cl)c([N+](=O)[O-])c1
34) O=C(NCc1ccccc1)c1ccc(S(=O)(=O)NCc2ccco2)cc1
35) CC[C@@H]1C/C=C\Cc2ccccc2[C@@H](C(=O)C[C@@H](O)CC(C)=O)OC1=O
36) CC(=O)Nc1ccc(NC(=O)CSc2nnc3ccc(-c4ccccn4)nn23)cc1

compound no.,31,32,33,34,35,36
Menin-MLL FL inh,.,1.2,-5.5,1.3,.,.
Sfp PPTase inh,.,15%,5%,9%,.,.
gsp ag,3%,?,24%,15%,.,11%[15.4 µM]
ClpP mod,0.8%,25µM*,0.1%,.,-0.3%,.
CtBP-E1A blk,0,-2,-10,6,1,-6
TRPV1 potentiator,-15,22,.,26,.,-1
gsp antagonist,-8%,-9%,4%,6%,-10%,0%

Reformatted tab-delimited: entries from further up.
nr	structure	Menin-MLL FL inh	Sfp PPTase inh	gsp ag	ClpP mod	CtBP-E1A blk	TRPV1 potentiator	gsp antagonist
35	CC[C@@H]1C/C=C\Cc2ccccc2[C@@H](C(=O)C[C@@H](O)CC(C)=O)OC1=O	.	.	.	-0.3%	1	.	-10%
36	CC(=O)Nc1ccc(NC(=O)CSc2nnc3ccc(-c4ccccn4)nn23)cc1	.	.	11%[15.4 µM]	.	-6	-1	0%

Next section:
37) CC(=O)Nc1ccc(/C=C/C(=O)c2ccc3c(c2)OCCO3)cc1
38) CC(C)(O)C#Cc1ccc(CN2CCN(C3CCCC3)C(CCO)C2)cc1 (stereo not given)
39) Cn1c2ccccc2c2nnc(SC3CCOC3=O)nc21 (stereo not given)
40) CCOC(=O)C1CCCN(S(=O)(=O)c2cccc3nsnc23)C1 (stereo not given)
41) Cc1cccc(NC(=O)CSc2nnnn2C)n1
42) O=C(COc1ccccc1)N/N=C/c1ccc(O[C@@H]2O[C@H](CO)[C@@H](O)[C@H](O)[C@H]2O)cc1

compound no.,37,38,39,40,41,42
Menin-MLL FL inh,22,2.7,4.0,1.9,2.8,-0.3
Sfp PPTase inh,1%,9%,2%,13%,11%,-1%
gsp ag,-5%[15.4 µM],-7%,?,-26%,0%,2%
ClpP mod,.,-0.5%,-0.1%,0.6%,-2.6%,-11%
CtBP-E1A blk,6,-12,1,0,7,12
TRPV1 potentiator,3,10,-11,-2,2,6
gsp antagonist,-5%,11%,-5%,-9%,9%,6%

43) Cc1ccsc1CNn1cnnc1SCc1ccccc1F
44) O=C(CC(=O)OCc1ccccc1)OCc1ccccc1
45) O=C(CSc1nnc(CNC(=O)c2c(F)cccc2Cl)o1)NCc1ccc(F)cc1
46) COc1ccc(-c2cc(C(F)(F)F)n3nc(C(=O)N4CCCCC4)cc3n2)cc1OC
47) Cc1ccc(S(=O)(=O)N2CCC(=O)N(C(COCc3ccc(Cl)cc3)C(C)C)CC2)cc1 (stereo not given)
48) O=C1NC(=Nc2ccccc2)SC1(CO)CO

compound no.,43,44,45,46,47,48
Menin-MLL FL inh,-1.6,.,.,-3.4,2.1,-1.6
Sfp PPTase inh,-2%,.,11%,0%,-26%,19%
gsp ag,4%,-18%,-4%,?,7%,-8%[15.4 µM]
ClpP mod,-1.2%,0.1%,1.2%,-4.7%,-0.1%,-2.0%
CtBP-E1A blk,-3,11,-4,3,0,-2
TRPV1 potentiator,23,.,-15,4,-1,-6
gsp antagonist,-9%,5%,13%,6%,-20%,-1%

49) CC(=O)c1cccc(NC(=O)C(C)OC(=O)CN2C(=O)NC(C)(C)C2=O)c1 (stereo not given)
50) CNC(=O)/C(=C\c1ccc([N+](=O)[O-])cc1)NC(C)=O
51) Cc1ccc2c(c1)N(CCC(=O)NCCN1CCOCC1)C(=O)CO2
52) CCOC(=O)/C=C1\CC(C(=O)OCC)Oc2ccccc21 (stereo not given)

compound no.,49,50,51,52
Menin-MLL FL inh,.,1.4,-0.6,-2.2[94.6 µM]
Sfp PPTase inh,.,2%,14%,4%
gsp ag,-5%,-3%,2%,.
ClpP mod,-4.2%,4.3%,0.7%,-8.5%
CtBP-E1A blk,.,-5,8,4
TRPV1 potentiator,1,3,0,.
gsp antagonist,6%,-20%,-7%,2%
